# Screens: PubChem, National Center for Advancing Translational Sciences (NCATS)
# VDR inhibitor: Inhibitors of the vitamin D receptor (VDR): qHTS | Vitamin D3 receptor (Homo sapiens), P11473 | AID 504847, 2011 | Potency, µM, for the others: max response, negative = inhibition, hits mostly inhibitors | VDR-SRC2-3 peptide fluorescence polarization, 2 h | 0.93% of 400,000 active; active = well fitted inhibition curve with a large enough effect; inconclusive = small, poorly fitted or top-dose-only effect, or another doubt; inactive = no such curve, though single readings can be large or run the other way; also: series mostly up to about 120 µM
# Target sequence (P11473 whole entry, looked up): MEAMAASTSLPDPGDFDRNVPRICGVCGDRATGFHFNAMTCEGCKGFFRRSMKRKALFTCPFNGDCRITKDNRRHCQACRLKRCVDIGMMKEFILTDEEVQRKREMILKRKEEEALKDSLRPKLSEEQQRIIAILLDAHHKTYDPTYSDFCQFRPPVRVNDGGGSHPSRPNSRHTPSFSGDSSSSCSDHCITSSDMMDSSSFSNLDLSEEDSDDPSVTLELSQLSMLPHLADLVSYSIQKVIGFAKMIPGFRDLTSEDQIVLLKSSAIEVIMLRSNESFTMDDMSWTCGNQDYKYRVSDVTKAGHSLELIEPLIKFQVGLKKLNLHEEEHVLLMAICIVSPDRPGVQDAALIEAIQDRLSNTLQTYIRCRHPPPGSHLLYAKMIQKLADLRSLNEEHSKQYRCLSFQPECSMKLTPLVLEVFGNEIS
#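 Compounds are added to VDR with labelled SRC2-3 coactivator peptide and held 2 h at room temperature. Inhibition of the VDR–peptide interaction is then read as a change in fluorescence polarization.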
# Active calls of the source: *; ? = inconclusive; & = joins results of further samples. % is scaled to controls: 0 for no effect and ±100 for the full control effect; potency is read from the fitted curve at half-maximal effect. An excerpt (hit frequency here may not be typical).
VDR inhibitor | molecule
6% | CCC(Nc1nc(-c2ccccc2)nc2ccccc12)C(=O)O (stereo not given)
-7% | CCc1ccc2nc(N)sc2c1
-25% | Cc1c(Cl)cccc1NC(=S)NC1CC1
-5% | O=C(c1cccc([N+](=O)[O-])c1)c1cc2ccccc2o1
2% | CCOc1ccc(Cn2c(CNS(=O)(=O)c3ccc(Cl)s3)nc3cccnc32)cc1
-6% | CCOC(=O)C(C)n1cnc2sc(C)c(C)c2c1=O (stereo not given)
-12% | COc1cccc(C(=O)NNC2=C(C(=O)C(F)(F)F)CCC2)c1
17% | NC(=O)c1ccccc1OCCOCCOCCOc1ccccc1C(N)=O
-19% | COc1cccc(NC(=O)c2ccccc2F)c1
-4% | CNc1nc(Cl)nc(Nc2ccccc2)n1
10% | O=C(CCS(=O)(=O)c1ccc(Cl)cc1)N1CCN(c2ccc(F)cc2)CC1
-9% | O=C(NNC(=O)C1CC=CCC1C(=O)O)c1cccs1 (stereo not given)
-9% | N/C(Cc1ccc([N+](=O)[O-])cc1)=N\OC(=O)c1cccc(Br)c1
0% | CC(=O)N1CCN(C23CC4CC(CC(C4)C2)C3)CC1
-15% | CC(C)c1nc2sc3c(c2c(=O)o1)CCCC3
? | CCOC(=O)C(NC(C)=O)(Nc1ccc(S(=O)(=O)Nc2ncccn2)cc1)C(F)(F)F (stereo not given)
-5% | COC(=O)c1c(C)[nH]c(C(=O)/C=C/c2cccc(Cl)c2)c1C
6% | O=C(Nc1ccc(S(=O)(=O)N(Cc2ccccc2)c2ccccc2)cc1)c1ccccc1F
-23% | CC(C)C[C@H]1CN=C(Nc2ccccc2)N1CC1CCC1
2% | O=C(COC(=O)/C=C/c1ccc(Cl)cc1Cl)NCC1CCCO1 (stereo not given)

VDR inhibitor | molecule
-17% | CCC1(CC)NC(=O)N(CC(=O)N2CCc3ccccc32)C1=O
-8% | O=C(Cn1nc(Cc2cccnc2)c2ccccc2c1=O)NCc1ccc2c(c1)OCO2
-23% | COc1ccc(-c2nnc(SCC(=O)c3cccs3)n2-c2ccc(Cl)cc2)cc1
-7% | CCc1nnc(NC(=O)c2ccc3nc(CC)c(CC)nc3c2)s1
-11% | Cc1c(/C=N/N=C2\CCC3C4CCc5cc(O)ccc5C4CCC23C)cnn1C (stereo not given)
-1% | COc1ccc(O)c(C(=O)c2cc(C#N)c(=O)n(CCN3CCOCC3)c2)c1
-17% | Cc1ccccc1N1CC(C(=O)Nc2ccc(S(=O)(=O)N3CCCCC3)cc2)CC1=O (stereo not given)
-6% | COc1cccc(-n2c(C)nc3c(cnn3-c3ccc(C)c(C)c3)c2=O)c1
-1% | Nc1nn(-c2ccccc2)nc1C(=O)OCc1ccccc1Br
-6% | CC1(C)CC(=O)C=C(Nc2ccc(Br)cn2)C1
4% | COc1ccc(/C=C/c2cc[n+](C(=O)Cc3ccccc3)cc2)cc1
-23% | C/C(=N\NC(=S)NCc1ccccc1)c1ccc2c(c1)OCCO2
-7% | N#CCSc1nnc(-c2sc3ccccc3c2Cl)o1
-8% | Cc1ccc(-c2ccnc3[nH]n(-c4ccccc4)c(=O)c23)cc1
-10% | CCOc1ccc(C2=NNC(c3cccs3)=Nc3ccc(OC)cc32)cc1OCC
7% | CCC(C)N(C(=O)CSc1nnc2ccccn12)C1CCS(=O)(=O)C1 (stereo not given)
1% | Nc1ncnc2c1ncn2[C@@H]1O[C@H](CNC(=O)[C@@H]2C[C@H](F)CN2)[C@@H](O)[C@H]1O
-13% | COc1cccc(N2CCN(C(=O)c3cc4c(s3)-c3c(C)cccc3OC4)CC2)c1
-13% | COC(=O)c1c(NC(=O)C(Cl)Cl)sc2c1C(C(=O)OC)CC2 (stereo not given)
-20% | COc1ccc(CCC(C)N2CCc3ccccc3C2)cc1 (stereo not given)

VDR inhibitor | molecule
-11% | O=C(CCC1COc2ccccc2O1)Nc1ncccc1O (stereo not given)
-4% | Cc1ccccc1CN(C)CC(=O)Nc1ccccc1-c1ccccc1
23% | Cc1[nH]c(=O)[nH]c(=O)c1/C=N/NC(=O)[C@@H](NC(=O)OC(C)(C)C)C(C)C
-1% | CCc1ccc(C(=O)NC(=S)NCc2cccnc2)cc1
-5% | COC(=O)c1sccc1NC(=O)CC1C(=O)NCCN1C(=O)Nc1ccc(OCc2ccccc2)cc1 (stereo not given)
2%&-6% | CN(c1ccccc1)S(=O)(=O)c1nnc(NC(=O)COc2ccccc2)s1
9% | CN(C)CCCNc1oc(-c2cccc(Cl)c2)nc1C#N
-8% | Cc1noc(C)c1CN(C(=S)NC(C)C)c1ccccc1
-5% | CCCN(CCC)CCCNC(=O)c1cc2cc3ccc(OC)cc3nc2o1
11% | Cc1cccc(C(=O)NNC(=O)c2ccco2)c1
? | Cc1cc(C)c2c(c1)C1C=CCC1C(C(=O)O)N2 (stereo not given)
? | C[C@@]12C(=O)Nc3cc(F)ccc3C(=O)N1[C@H]1c3cc(Br)ccc3OC[C@@H]1[C@@H]2c1ccccc1
-2% | FC(F)(F)COc1ccc(-c2nnc(SCc3ccccc3)o2)cn1
-20% | O=C(NC1CCCc2ccccc21)c1ccc2c(c1)OCO2 (stereo not given)
-1% | COc1ccc(NC(=O)N[C@@H](CCSC)C(=O)O)cc1OC
-13% | COc1ccc(/C=N/N=C2/SCC(=O)N2Cc2ccccc2)cc1
-1% | O=C(c1ccccc1F)c1cc2c(cc1[N+](=O)[O-])OCCO2
-9% | N#CCNC(=O)c1cccn1-c1ncc(C(F)(F)F)cc1Cl
0% | CC(C)(C)C(=O)NCCc1nc2ccccc2n1CCCCOc1ccc(Cl)cc1
-15% | COc1ccc([C@H]2[C@H](C(=O)OC(C)(C)C)N3N=Cc4ccccc4C3C23C(=O)c2ccccc2C3=O)c(OC)c1 (stereo not given in full)

VDR inhibitor | molecule
-2% | CCCS(=O)(=O)N1CCC(C(=O)NCCN(CC)c2ccccc2)CC1
-13% | Cc1nn(-c2ccccc2)c(N2CCCC2)c1/C=N/NC(=S)Nc1ccccc1F
11% | COc1ccc(Cl)cc1NC(=O)COC(=O)c1ccc(Br)o1
-4% | O=C(Cc1ccccc1)N/N=C/c1ccccc1Cl
2% | Cc1ccc(/C=N/n2c(-c3cccs3)n[nH]c2=S)cc1
-12% | CN(C(=O)CSc1nc2[nH]ncc2c(=O)[nH]1)c1ccccc1
26% | Cc1c(S(=O)(=O)c2ccccn2)c(N)n(Cc2ccccc2Cl)c1C
12% | COc1ccccc1/C=C\C=N\n1c(C2CCCCC2)n[nH]c1=S
? | CCOC(=O)C1CCN(S(=O)(=O)c2ccc3c(c2)N(C(C)=O)CC(C)S3)CC1 (stereo not given)
11% | CSc1nc2nc3c(c(=O)n2[nH]1)CCC3
-9% | Cc1ccc(Cl)c(OCC(=O)OC(C)C(=O)NC2CC2)c1 (stereo not given)
-4% | CC(C)(C)[C@@H]1C=C(C(N)=O)O[C@H](OCCCCO)C1
? | O=C(CSc1nnc(SCc2ccccc2)s1)N/N=C/C=C\c1ccco1
-7% | Cn1nccc1C(=O)Nc1ccc2c(c1)OCO2
1% | Cc1ccc(NC(=O)CN(C)C(=O)CSc2nnnn2C)cc1
-2% | Cn1c(=O)c2[nH]c(NN=Cc3ccccc3)nc2n(C)c1=O
-14% | Cc1oc2ccc(O)cc2c1C(=O)c1ccc([N+](=O)[O-])cc1
-2% | COc1ccc(-n2cc(CNCCc3nc(C)cc(C)n3)c(-c3ccccc3Cl)n2)cc1
-4% | CC1=C(C(=O)Nc2cccnc2)C(c2cccnc2)n2nc(-c3cccs3)nc2N1 (stereo not given)
-4% | O=C(Nc1ccccc1)C(=O)Nc1ccc2c(c1)N(C(=O)C1CC1)CCC2

VDR inhibitor | molecule
23% | CCCC(=O)Nc1ccc(C(=O)Nc2cc(C(F)(F)F)ccc2Cl)cc1
1% | Cc1ccc(C2CC(c3ccccc3C)n3nc(N)nc3N2)cc1 (stereo not given)
-20% | Cc1ccc(C(=O)O)cc1NC(=S)NC(=O)c1ccc([N+](=O)[O-])cc1Cl
11% | COc1ccc(S(=O)(=O)N2CCOCC2)cc1NC(=O)CN1CCCC1
14% | O=C(COC(=O)c1cccc(S(=O)(=O)N2CCN(c3ccccc3)CC2)c1)NCC1CCCO1 (stereo not given)
-17% | COc1ccc2c(c1)c(=O)c(Br)c(C)n2Cc1ccccc1
12% | O=C(NCc1ccccc1)c1ccc(CS(=O)Cc2ccc(Cl)cc2)o1 (stereo not given)
-7% | COc1ccc(OCC(=O)Nc2ccccc2O)cc1
-12% | Oc1c(C(c2cccs2)N2CCN(c3ccccc3)CC2)sc2ncnn12 (stereo not given)
-12% | O=S(=O)(c1ccccc1)c1cnn(-c2ccccc2)c1-c1ccc(Cl)cc1
3% | CCOC(=O)c1c(-c2cccc([N+](=O)[O-])c2)cn2ccccc12
-4% | O=C(NCc1ccccc1)c1ccc(NC(=O)c2ccccc2F)cc1
9% | COc1cccc(N2CCN(S(=O)(=O)c3ccc4c(c3)NC(=O)C(C)C(=O)N4)CC2)c1 (stereo not given)
6% | C=Cc1ccc(CN2C(=O)N(c3ccc(C)c(C)c3)S(=O)(=O)c3ccccc32)cc1
1% | Cc1ccc(CN2CCN(Cc3cnn(-c4ccc(F)cc4)c3)CC2CCO)o1 (stereo not given)
-1% | COC(=O)c1[nH]c2c(c1C)C(=O)CCC2
? | COc1cc(-c2cc(C(=O)Nc3ccc(S(=O)(=O)Nc4ncccn4)cc3)c3ccccc3n2)cc(OC)c1OC
5% | CCCCNC(=O)COC(=O)c1c2c(nc3ccccc13)CCC2
-6% | COC(=O)c1ccccc1S(=O)(=O)N1CCC(NC(=O)c2ccccc2)CC1
28µM* | O=[N+]([O-])c1ccc(S(=O)(=O)c2cccc(C(F)(F)F)c2)nc1

# In another format: five of the compounds above
Compound,VDR inhibitor
COc1ccc([C@H]2[C@H](C(=O)OC(C)(C)C)N3N=Cc4ccccc4C3C23C(=O)c2ccccc2C3=O)c(OC)c1 (stereo not given in full),-15%
N/C(Cc1ccc([N+](=O)[O-])cc1)=N\OC(=O)c1cccc(Br)c1,-9%
COc1cc(-c2cc(C(=O)Nc3ccc(S(=O)(=O)Nc4ncccn4)cc3)c3ccccc3n2)cc(OC)c1OC,?
CCc1ccc(C(=O)NC(=S)NCc2cccnc2)cc1,-1%
Cc1ccc(-c2ccnc3[nH]n(-c4ccccc4)c(=O)c23)cc1,-8%

# New compounds follow:
VDR inhibitor | molecule
-17% | CC(O)CNc1nc2sc3c(c2c(=O)n1CCc1ccccc1)CCCCC3 (stereo not given)
-10% | CC(CCc1ccccc1)NC(=O)C1CCN(S(=O)(=O)c2cnc[nH]2)CC1 (stereo not given)
5% | O=C(c1ccc([N+](=O)[O-])cc1)n1nc(-c2ccccc2)nc1NCc1ccccc1
19%&-3% | COC(=O)Cc1csc(N)n1
? | COc1ccccc1N=Cc1nc(-c2ccccc2)oc1OC(C)=O
2% | O=C1C(Nc2ccccc2)=CC(c2ccc(O)cc2)N1c1ccccc1 (stereo not given)
6% | COc1ccc(CNC(=O)c2ccc3[nH]c(C)c(C)c3c2)c(OC)c1
-9% | CCOC(=O)c1c(C)[nH]c(C(=O)COC(=O)CCNS(=O)(=O)c2ccc(NC(C)=O)cc2)c1C
-3% | Cc1ccc(N(Cc2ccccc2F)S(C)(=O)=O)cc1C
-26% | CSc1ncccc1C(=O)OCC(=O)NC1CC1
? | CCCCCCCCCCCCCCCCCCc1ccc(C(=O)/C=C\C(=O)O)cc1
-1% | N/C(=N\OC(=O)/C=C/c1ccccc1Cl)c1ccccn1
14% | Cc1ccc(CN2CCN(Cc3ccc(-n4cccn4)cc3C)CC2CCO)cc1 (stereo not given)
11% | Cc1noc(NS(=O)(=O)c2ccc(N3Cc4ccccc4C3=O)cc2)c1C
-10% | COc1ccccc1NC(=O)CSc1nncs1
12% | C=CCc1ccc(OCCOCCNCCCC)c(OC)c1
3% | C=CCN(CC=C)S(=O)(=O)c1ccc(NC(=S)NC(=O)/C=C/c2cccc3ccccc23)cc1
-6% | CCOc1cccc(CN2CCC(n3nccc3NC(=O)C3CCCC3)CC2)c1
10% | Cc1ccc(Cn2c(CNS(=O)(=O)c3ccc(F)c(Cl)c3)nc3cccnc32)cc1
-2% | CCOC(=O)c1c(C)oc2ccc(N(C(C)=O)S(=O)(=O)c3c(C)cc(C)cc3C)cc12

# Shown with tabs: part of the list above
Structure	VDR inhibitor
CCCCCCCCCCCCCCCCCCc1ccc(C(=O)/C=C\C(=O)O)cc1	?
N/C(=N\OC(=O)/C=C/c1ccccc1Cl)c1ccccn1	-1%
Cc1ccc(CN2CCN(Cc3ccc(-n4cccn4)cc3C)CC2CCO)cc1 (stereo not given)	14%
Cc1noc(NS(=O)(=O)c2ccc(N3Cc4ccccc4C3=O)cc2)c1C	11%
COc1ccccc1NC(=O)CSc1nncs1	-10%

# Part of the list above, with each value named:
CSc1ncccc1C(=O)OCC(=O)NC1CC1
  VDR inhibitor: -26%

N/C(=N\OC(=O)/C=C/c1ccccc1Cl)c1ccccn1
  VDR inhibitor: -1%

# Remaining list, next part:
VDR inhibitor | molecule
4% | O=C(COC(=O)c1ccco1)c1ccc2ccccc2c1
-3% | O=C(CCNS(=O)(=O)c1ccc(Cl)cc1)N1CCCC1
0% | O=C1c2oc3ccc(F)cc3c(=O)c2C(c2cccc(O)c2)N1CCCN1CCOCC1 (stereo not given)
-5%&-16% | COc1cc2oc(=O)cc(-c3cccc(-c4ccc(C(F)(F)F)cc4)c3)c2c(OC)c1OC
4% | COc1ccccc1C(=O)NCCC(=O)N1CCCCCCC1
6% | O=C(CCCn1c(=O)c2ccccc2n(CC(=O)Nc2cccc(C(F)(F)F)c2)c1=O)NCc1ccc2c(c1)OCO2
10% | O=C(NCC(c1cccs1)N1CCOCC1)c1cc(Cl)ccc1[N+](=O)[O-] (stereo not given)
2% | COc1ccc(C(=O)Nc2cccnc2)cc1S(=O)(=O)N1CCOCC1
27% | O=C(Nc1ccc(Cl)cc1F)c1ccc2c(c1)C(=O)N(Cc1ccncc1)C2=O
-3% | Cc1ccccc1C(=O)N1CCN(c2ccc(NC(=S)NC(=O)c3cccs3)cc2)CC1
